Source: PubChem BioAssay
PV pol inh – poliovirus RNA polymerase inhibition | % elongation, % (compound at 16.7 µg/mL) | AID 588519 | actives 0.66% (n = 150,000) | poliovirus polymerase elongation, fluorescence polarization; hits give low values | P03300; in the data active means % elongation below about 90%; further: some results filed as inactive read as strong as hits
Target sequence (P03300 1749-2209 limits assumed): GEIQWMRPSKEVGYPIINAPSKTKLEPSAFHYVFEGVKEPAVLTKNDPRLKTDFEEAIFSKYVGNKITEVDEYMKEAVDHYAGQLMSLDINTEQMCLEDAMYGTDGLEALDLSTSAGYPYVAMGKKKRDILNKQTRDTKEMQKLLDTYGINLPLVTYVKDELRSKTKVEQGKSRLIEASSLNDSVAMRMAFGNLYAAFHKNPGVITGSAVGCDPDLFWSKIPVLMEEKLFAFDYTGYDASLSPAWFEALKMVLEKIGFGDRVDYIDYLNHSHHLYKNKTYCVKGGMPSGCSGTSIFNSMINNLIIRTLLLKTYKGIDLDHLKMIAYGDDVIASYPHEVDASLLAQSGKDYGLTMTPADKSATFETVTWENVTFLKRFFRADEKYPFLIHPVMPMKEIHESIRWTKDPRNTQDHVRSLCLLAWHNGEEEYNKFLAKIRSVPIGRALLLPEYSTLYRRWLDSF
PV pol inh intensity – second read-out of PV pol inh, no call of its own (marks repeat the call); % elongation; measured here: total intensity read-out; formula for this scale not given here;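 total fluorescence in place of polarization; lower means less elongation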
* = called active by the depositor.

For Cc1nn(CC(=O)NCCc2ccc(Cl)cc2)c(=O)c2cc3cc(F)ccc3n12 the results were PV pol inh 109.0 and PV pol inh intensity 110.0.
Screening CCOC(=O)c1c(-c2ccccc2)oc2ccc(NS(=O)(=O)c3ccccc3)cc12 returned PV pol inh 109.0 and PV pol inh intensity 111.0.
For CCOc1ccc(/C=C/C(=O)Nc2ccc3nc(N(CC)CC)cc(C)c3c2)cc1OC the results were PV pol inh 109.0 and PV pol inh intensity 110.0.
Screening Cc1ccc(NC(=O)N2CCN(Cc3nc4ccc(C)cc4o3)CC2)c(Cl)c1 returned PV pol inh 103.0 and PV pol inh intensity 110.0.
`Cc1cc(OCC(=O)NC(Cc2c[nH]c3ccccc23)C(=O)O)ccc1Cl` (stereo not given) gave PV pol inh 106.0 and PV pol inh intensity 108.0.
CCN(CC)CCNC(=O)c1nn(-c2ccc(OC)c(Cl)c2)c(=O)c2c1c1ccccc1n2C was read as PV pol inh 105.0 and PV pol inh intensity 112.0.
Screening COc1ccc(-c2nsc(NC(=O)c3cccc(OC)c3)n2)cc1 returned PV pol inh 108.0 and PV pol inh intensity 110.0.
`CCOc1ccc(OCC)c(NS(=O)(=O)c2cc(-c3cnc(C)o3)ccc2OC)c1` gave PV pol inh 105.0 and PV pol inh intensity 103.0.
Screening COc1cc(C(=O)Nc2ccc(NC(=O)c3ccc(C(C)(C)C)cc3)cc2)cc(OC)c1OC returned PV pol inh 103.0 and PV pol inh intensity 103.0.
`COc1ccc(N(CC(=O)Nc2cc(OC)cc(OC)c2)S(=O)(=O)c2c(C)noc2C)cc1` gave PV pol inh 106.0 and PV pol inh intensity 109.0.
Screening CC(C)Sc1ncc(Cl)c(C(=O)N(Cc2ccc(F)cc2)C2CCS(=O)(=O)C2)n1 (stereo not given) returned PV pol inh 112.0 and PV pol inh intensity 115.0.
For O=C1CSC2(C(=O)N(Cc3cccc(C(F)(F)F)c3)c3ccccc32)N1c1ccc(F)c(F)c1 (stereo not given) the results were PV pol inh 112.0 and PV pol inh intensity 112.0.
`COc1ccc(-c2nc3sc(CCNS(=O)(=O)c4c(C)cc(C)cc4C)c(C)n3n2)cc1` gave PV pol inh 108.0 and PV pol inh intensity 102.0.
For CCOC(=O)c1cnc2c(Cl)cccc2c1NCCN1CCOCC1 the results were PV pol inh 100.0 and PV pol inh intensity 104.0.
Screening Cc1n[nH]c(C)c1CCc1nc2c3ccccc3nc(SCC(=O)Nc3ccc(F)cc3)n2n1 returned PV pol inh 104.0 and PV pol inh intensity 96.0.
COc1cccc(CNC(=O)CN2C(=O)COc3ccc(S(=O)(=O)N4CCCCCC4)cc32)c1 was read as PV pol inh 121.0 and PV pol inh intensity 115.0.
CCC(=O)Nc1ccc2nc(SCCOc3ccc(C)cc3OC)sc2c1 was read as PV pol inh 111.0 and PV pol inh intensity 112.0.
Screening Cc1ccc(-c2nc(CCNC(=O)c3ccc(C)c(C)c3)cs2)cc1 returned PV pol inh 103.0 and PV pol inh intensity 107.0.
`Cc1ccccc1C(=O)n1nc(-c2cccnc2)nc1NCc1ccccc1` gave PV pol inh 112.0 and PV pol inh intensity 111.0.
Cc1ccc(OCCSc2nc(-c3cccs3)nc3cc(=O)[nH]n23)cc1Cl was read as PV pol inh 105.0 and PV pol inh intensity 94.0.
Screening Cn1c(=O)c(=O)n(C)c2cc(S(=O)(=O)N3CCCC3C(=O)Nc3ccccc3F)ccc21 (stereo not given) returned PV pol inh 103.0 and PV pol inh intensity 109.0.
`Cc1nn(C)c(C)c1S(=O)(=O)N(CC(=O)Nc1ccc(F)cc1F)c1ccc(C(C)C)cc1` gave PV pol inh 98.0 and PV pol inh intensity 95.0.
For COc1ccccc1CCNC(=O)C(=O)NCC(c1cccnc1)N1CCN(c2ccccc2)CC1 (stereo not given) the results were PV pol inh 110.0 and PV pol inh intensity 111.0.
For COC(=O)c1ccc(CSc2nc3c([nH]c4ccccc43)c(=O)n2-c2cccc(Cl)c2)o1 the results were PV pol inh 108.0 and PV pol inh intensity 113.0.
For COc1ccccc1CNC(=O)CN1C(=O)c2cccnc2Oc2ccccc21 the results were PV pol inh 103.0 and PV pol inh intensity 106.0.
Screening Cc1ccc(C)c(NC(=O)c2nc(S(C)(=O)=O)ncc2N(Cc2ccc(C(C)(C)C)cc2)Cc2ccco2)c1 returned PV pol inh 107.0 and PV pol inh intensity 106.0.
For CC1=C(C(=O)NCc2ccccc2C)C2(CCCCC2)OC1=O the results were PV pol inh 99.0 and PV pol inh intensity 101.0.
`CCOc1ccc(CNCc2c(C(=O)O)c(C)n(Cc3ccc(F)cc3Cl)c2C)cc1` gave PV pol inh 100.0 and PV pol inh intensity 99.0.
`CCOc1ccccc1C1C(C(N)=O)=C(C)Nc2nc(-c3ccccc3Cl)nn21` (stereo not given) gave PV pol inh 106.0 and PV pol inh intensity 103.0.
COc1ccc2ncc3c(-c4ccccc4)nn(-c4ccc(C)c(C)c4)c3c2c1 was read as PV pol inh 106.0 and PV pol inh intensity 107.0.
For CCc1ccc2oc(-c3ccc(C)c(NC(=O)c4cc([N+](=O)[O-])ccc4N4CCOCC4)c3)nc2c1 the results were PV pol inh 108.0 and PV pol inh intensity 109.0.
`CCOc1ccc(N2CC(NC(=O)c3ccc(S(=O)(=O)N4CCCC4)cc3)CC2=O)cc1` (stereo not given) gave PV pol inh 106.0 and PV pol inh intensity 105.0.
O=S(=O)(Nc1ccc(-c2ccc(N3CCCC3)nn2)cc1)c1ccc(OC(F)(F)F)cc1 was read as PV pol inh 106.0 and PV pol inh intensity 113.0.
For Cc1nn(C)c2c1c(-c1ccccc1)cc(=O)n2Cc1ccccc1F the results were PV pol inh 103.0 and PV pol inh intensity 102.0.
`CCOC(=O)c1scc(-c2ccccc2)c1S(=O)(=O)Nc1cc(OC)cc(OC)c1` gave PV pol inh 108.0 and PV pol inh intensity 114.0.
Screening Cc1cc(C)c2sc(N3CCN(C(=O)C4CC4)CC3)nc2c1 returned PV pol inh 104.0 and PV pol inh intensity 100.0.

Retrieved one by one from the entries so far, 2 records:
For O=C1CSC2(C(=O)N(Cc3cccc(C(F)(F)F)c3)c3ccccc32)N1c1ccc(F)c(F)c1 (stereo not given) the results were PV pol inh 112.0 and PV pol inh intensity 112.0.
`CCOC(=O)c1scc(-c2ccccc2)c1S(=O)(=O)Nc1cc(OC)cc(OC)c1` gave PV pol inh 108.0 and PV pol inh intensity 114.0.

Structures from the list above containing two or more sulfur atoms, in the order listed:
Screening CC(C)Sc1ncc(Cl)c(C(=O)N(Cc2ccc(F)cc2)C2CCS(=O)(=O)C2)n1 (stereo not given) returned PV pol inh 112.0 and PV pol inh intensity 115.0.
`COc1ccc(-c2nc3sc(CCNS(=O)(=O)c4c(C)cc(C)cc4C)c(C)n3n2)cc1` gave PV pol inh 108.0 and PV pol inh intensity 102.0.
CCC(=O)Nc1ccc2nc(SCCOc3ccc(C)cc3OC)sc2c1 was read as PV pol inh 111.0 and PV pol inh intensity 112.0.
Cc1ccc(OCCSc2nc(-c3cccs3)nc3cc(=O)[nH]n23)cc1Cl was read as PV pol inh 105.0 and PV pol inh intensity 94.0.
`CCOC(=O)c1scc(-c2ccccc2)c1S(=O)(=O)Nc1cc(OC)cc(OC)c1` gave PV pol inh 108.0 and PV pol inh intensity 114.0.

Following part
COCCCn1c(=N)c(C(=O)NC2CCCC2)cc2c(=O)n3ccccc3nc21 was read as PV pol inh 111.0 and PV pol inh intensity 113.0.
Screening COc1ccc(Nc2nnc(-c3ccc(C)c(S(=O)(=O)N4CCOCC4)c3)c3ccccc23)cc1 returned PV pol inh 106.0 and PV pol inh intensity 107.0.
For O=C(O)c1ccc(Nc2nc3ccccc3c3nncn23)cc1 the results were PV pol inh 109.0 and PV pol inh intensity 115.0.
For CC(=O)c1ccc(NC(=O)c2cn(-c3ccccc3)nc2-c2ccc(Br)cc2)cc1 the results were PV pol inh 107.0 and PV pol inh intensity 112.0.
Screening COc1ccc(Cc2nc3ccc(C(=O)NCCc4ccc(Cl)cc4)cc3o2)cc1 returned PV pol inh 106.0 and PV pol inh intensity 112.0.
CC(C)c1ccc(NC(=O)CCS(=O)(=O)c2ccc(Br)s2)cc1 was read as PV pol inh 104.0 and PV pol inh intensity 110.0.
CN(C(=O)CSc1nnc(-c2ccccc2F)o1)C1CCCCC1 was read as PV pol inh 108.0 and PV pol inh intensity 105.0.
Screening CC(=O)c1ccc(N2CCN(S(=O)(=O)c3ccc(-c4cnc(C5CC5)o4)cc3)CC2)cc1 returned PV pol inh 104.0 and PV pol inh intensity 110.0.
Screening COc1ccc2c(c1)c(=O)c(S(=O)(=O)c1ccccc1)cn2CC(=O)Nc1ccc(C)c(Cl)c1 returned PV pol inh 109.0 and PV pol inh intensity 113.0.
COc1cc(NC(=O)Cn2c(=O)n(CC(=O)NCCc3ccc(OC)c(OC)c3)c(=O)c3sccc32)cc(OC)c1 was read as PV pol inh 109.0 and PV pol inh intensity 111.0.
For COc1ccc(NC(=O)c2c(NC(=O)COc3ccccc3)sc3c2CCC(C)C3)cc1 (stereo not given) the results were PV pol inh 103.0 and PV pol inh intensity 98.0.
For COc1cc(C(=O)Nc2ccc3[nH]c(=O)sc3c2)cc(OC)c1OC the results were PV pol inh 108.0 and PV pol inh intensity 106.0.
Screening Cc1ccc(NC(=O)N2CC3CCCN3c3ccccc32)cc1Cl (stereo not given) returned PV pol inh 102.0 and PV pol inh intensity 112.0.
For Cc1cccc(N2CCN(C(=O)c3cc4c(=O)n(C)c5ccccc5c4s3)CC2)c1C the results were PV pol inh 103.0 and PV pol inh intensity 105.0.
CCOC(=O)c1c(-c2ccc(C)cc2)csc1NC(=O)c1cc(=O)c2ccc(C)cc2o1 was read as PV pol inh 98.0 and PV pol inh intensity 98.0.
Cc1ccc2nc(-c3ccc(N4CCOCC4)cc3)c(Nc3ccccc3C)n2c1 was read as PV pol inh 105.0 and PV pol inh intensity 106.0.
Screening Cc1cc(SCC(=O)Nc2nsc(-c3ccc(C(C)(C)C)cc3)n2)nc2ccccc12 returned PV pol inh 104.0 and PV pol inh intensity 105.0.
COc1ccc(NC(=O)c2cc3c(C)nn(-c4ccccc4)c3s2)c(OC)c1 was read as PV pol inh 105.0 and PV pol inh intensity 106.0.
For CCCCCn1c(C(C)NC(=O)c2ccccc2)nc2ccccc21 (stereo not given) the results were PV pol inh 103.0 and PV pol inh intensity 106.0.
Screening CCOc1ccccc1NC(=O)c1cc2c(=O)n(Cc3cccnc3)ccc2nc1C returned PV pol inh 105.0 and PV pol inh intensity 114.0.
For Cc1sc2c(c1C)c(=O)n(CCc1ccccc1)c(=O)n2Cc1ccccc1Cl the results were PV pol inh 107.0 and PV pol inh intensity 108.0.
For Cc1cc(C)cc(N2CCn3c2nc2c3c(=O)n(Cc3c(F)cccc3Cl)c(=O)n2C)c1 the results were PV pol inh 99.0 and PV pol inh intensity 100.0.
Screening Cc1ccc(NC(=O)CCCn2c(=O)c3cccn3c3ccccc32)cc1C returned PV pol inh 113.0 and PV pol inh intensity 116.0.
Screening Cc1cccc(NC(=O)C(=O)NCCc2sc(-c3ccccc3)nc2C)c1C returned PV pol inh 113.0 and PV pol inh intensity 113.0.
O=C(Nc1cccc(-c2cn3cccnc3n2)c1)c1cc(Br)ccc1Cl was read as PV pol inh 97.0 and PV pol inh intensity 105.0.
Screening CC1CCCCN1C(=O)CN1CCSc2ccccc21 (stereo not given) returned PV pol inh 89.0 and PV pol inh intensity 89.0.
O=C(c1ccco1)n1nc(-c2ccc(Cl)cc2)nc1NCc1ccccc1 was read as PV pol inh 105.0 and PV pol inh intensity 107.0.
`Cc1cccc(NC(=O)CSc2nc(-c3ccccc3Cl)nc3c2Cc2c(CO)cnc(C)c2O3)c1C` gave PV pol inh 105.0 and PV pol inh intensity 101.0.
CCOc1ccccc1NC(=O)Cn1c(=O)n(Cc2ccc(OC)cc2)c(=O)c2oc3ccccc3c21 was read as PV pol inh 104.0 and PV pol inh intensity 111.0.
For O=c1c2c3c(sc2nnn1Cc1ccc(F)cc1)CCCC3 the results were PV pol inh 111.0 and PV pol inh intensity 119.0.
For O=C(Nc1nnc(S(=O)(=O)N2CCCCCC2)s1)c1ccc(Br)cc1 the results were PV pol inh 105.0 and PV pol inh intensity 113.0.
`CC1CCC(NC(=O)c2ccc3c(c2)N(Cc2ccccc2F)C(=O)c2ccccc2S3(=O)=O)CC1` (stereo not given) gave PV pol inh 106.0 and PV pol inh intensity 109.0.
`CC(C)Cn1cc(NC(=O)N2CCN(c3ccc(F)cc3)CC2)c2ccccc2c1=O` gave PV pol inh 103.0 and PV pol inh intensity 103.0.
`O=C(CCCCn1c(=O)c2ccccc2n(CC(=O)Nc2ccc(F)cc2F)c1=O)NCCc1ccccc1` gave PV pol inh 107.0 and PV pol inh intensity 108.0.
Cc1ccccc1Cn1c(SCc2ccc(C(=O)N3CCCCC3)cc2)nc2ccncc21 was read as PV pol inh 106.0 and PV pol inh intensity 109.0.
For CCN(CC)CCNC(=O)c1ccc(CSc2nc3ccncc3n2Cc2cccc(F)c2)cc1 the results were PV pol inh 105.0 and PV pol inh intensity 103.0.
For COc1cc(Cl)c(C)cc1NC(=O)CSCc1nc(-c2ccc(OC)c(OC)c2)no1 the results were PV pol inh 109.0 and PV pol inh intensity 116.0.
Screening COc1cc(NC(=O)Cn2c(=O)n(Cc3ccco3)c(=O)c3sc4ccccc4c32)cc(OC)c1 returned PV pol inh 106.0 and PV pol inh intensity 110.0.
CC(=O)N1CCc2c(sc3c2c(=O)n(-c2ccccc2)c(=O)n3CC(=O)c2ccc(Cl)cc2)C1 was read as PV pol inh 107.0 and PV pol inh intensity 108.0.
For CC1=C(C(=O)Nc2cc(Cl)ccc2C)C(c2cccs2)n2ncnc2N1 (stereo not given) the results were PV pol inh 113.0 and PV pol inh intensity 107.0.
COc1ccc(NC(=O)CN2C(=O)C(=O)c3ccccc32)c(OC)c1 was read as PV pol inh 105.0 and PV pol inh intensity 108.0.
Screening COc1ccc(OCC2c3cc(OC)c(OC)cc3CCN2C(=O)c2ccc(F)cc2)cc1 (stereo not given) returned PV pol inh 110.0 and PV pol inh intensity 95.0.
Cc1ccc(-c2nnc(Nc3ccccc3)c3ccccc23)cc1S(=O)(=O)N1CCOCC1 was read as PV pol inh 106.0 and PV pol inh intensity 110.0.

These rows are one share of the data; the hit share may differ from the screen's.
